Screening results from PubChem BioAssay.
A1 apoptosis 2 = compounds inhibiting A1, read as caspase activation | AID 2465 | caspase activation, % (no concentration beside the values) | MEF A1-2A-BIM cells, caspase-Glo luminescence, 3 h; percent of clofoctol response, DMSO zero | 24,000 tested, under 10 active; in the data active = caspase activation above about 5.9%;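 note: wells of about 30 µL received 50 nL stock; the first replicate is given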
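Material: A1-2A-BIM-expressing MEF cells. Buffer or medium: RPMI-1640 plus 10% FBS. Incubation: cells settled overnight, compound exposure 3 h at 37 °C, 5% CO2. Signal: Caspase-Glo 3/7 luminescence, 1 h at room temperature.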
* hit, by the source's call. An excerpt; count on the stated rates, not on these rows.

SMILES	A1 apoptosis 2
C[C@@H]1CN([C@H](C)CO)C(=O)c2cc(NC(=O)c3ccccc3)ccc2O[C@@H](C)CCCCO[C@@H]1CN(C)CC1CCCCC1	-0.4
C[C@@H]1CCCCO[C@@H](CN(C)Cc2ccc(C(=O)O)cc2)[C@@H](C)CN([C@H](C)CO)C(=O)c2cc(NC(=O)Nc3ccc4c(c3)OCO4)ccc2O1	0.6
Cc1noc(C)c1NC(=O)Nc1cccc2c1O[C@H](CN(C)CC1CCCCC1)[C@@H](C)CN([C@@H](C)CO)C2=O	0.5
Cc1cc(C(=O)Nc2cccc3c2O[C@@H](CN(C)CC2CCCCC2)[C@@H](C)CN([C@H](C)CO)C3=O)n(C)n1	-1.5
COc1ccc(S(=O)(=O)Nc2ccc3c(c2)C(=O)N([C@@H](C)CO)C[C@H](C)[C@@H](CN(C)Cc2ccc4c(c2)OCO4)OCCCC[C@H](C)O3)cc1	0.4
C[C@H](CO)N1C[C@H](C)[C@H](CN(C)C(=O)Nc2ccc(F)cc2)Oc2ccc(NS(=O)(=O)c3cccs3)cc2C1=O	0.1
C[C@H](CO)N1C[C@H](C)[C@@H](CN(C)CC2CC2)Oc2c(NC(=O)Nc3ccc(F)cc3)cccc2C1=O	-1.2
C[C@@H]1CN([C@@H](C)CO)C(=O)c2cc(NC(=O)CCC(F)(F)F)ccc2O[C@@H](C)CCCCO[C@@H]1CN(C)S(=O)(=O)c1cn(C)cn1	-0.8
C[C@@H]1CN([C@H](C)CO)C(=O)c2cc(NS(=O)(=O)c3ccc(Cl)cc3)ccc2O[C@@H]1CN(C)CC1CC1	-0.5
Cc1noc(C)c1S(=O)(=O)Nc1ccc2c(c1)CC(=O)N([C@@H](C)CO)C[C@H](C)[C@@H](CN(C)C(=O)Nc1ccccc1)O2	0.6
Cc1ccc(S(=O)(=O)Nc2ccc3c(c2)C(=O)N([C@@H](C)CO)C[C@H](C)[C@@H](CN(C)C(=O)Cc2ccccc2)OCCCC[C@H](C)O3)cc1	-0.9
C[C@@H]1CN([C@@H](C)CO)C(=O)c2cc(NC(=O)Nc3ccc(C(F)(F)F)cc3)ccc2O[C@@H](C)CCCCO[C@H]1CN(C)C(=O)c1ccccc1	0.2
C[C@H]1CN([C@@H](C)CO)C(=O)c2cc(NC(=O)CCCN(C)C)ccc2O[C@H]1CN(C)C(=O)Nc1cccc2ccccc12	0.5
COc1ccc(NC(=O)Nc2ccc3c(c2)C(=O)N([C@@H](C)CO)C[C@@H](C)[C@@H](CN(C)S(=O)(=O)c2c(C)noc2C)OCCCC[C@@H](C)O3)cc1	0.9
Cc1ccc(S(=O)(=O)Nc2ccc3c(c2)C(=O)N([C@H](C)CO)C[C@@H](C)[C@H](CN(C)C(=O)Nc2ccccc2)OCCCC[C@H](C)O3)cc1	-0.4

The list goes on, starting with the last five of the part before.
SMILES	A1 apoptosis 2
Cc1ccc(S(=O)(=O)Nc2ccc3c(c2)C(=O)N([C@@H](C)CO)C[C@H](C)[C@@H](CN(C)C(=O)Cc2ccccc2)OCCCC[C@H](C)O3)cc1	-0.9
C[C@@H]1CN([C@@H](C)CO)C(=O)c2cc(NC(=O)Nc3ccc(C(F)(F)F)cc3)ccc2O[C@@H](C)CCCCO[C@H]1CN(C)C(=O)c1ccccc1	0.2
C[C@H]1CN([C@@H](C)CO)C(=O)c2cc(NC(=O)CCCN(C)C)ccc2O[C@H]1CN(C)C(=O)Nc1cccc2ccccc12	0.5
COc1ccc(NC(=O)Nc2ccc3c(c2)C(=O)N([C@@H](C)CO)C[C@@H](C)[C@@H](CN(C)S(=O)(=O)c2c(C)noc2C)OCCCC[C@@H](C)O3)cc1	0.9
Cc1ccc(S(=O)(=O)Nc2ccc3c(c2)C(=O)N([C@H](C)CO)C[C@@H](C)[C@H](CN(C)C(=O)Nc2ccccc2)OCCCC[C@H](C)O3)cc1	-0.4
Cc1ccc(S(=O)(=O)N(C)C[C@H]2Oc3ccc(NC(=O)c4ccncc4)cc3C(=O)N([C@@H](C)CO)C[C@H]2C)cc1	1.3
C[C@H](CO)N1C[C@H](C)[C@@H](CN(C)CC2CCCCC2)Oc2ccc(NS(C)(=O)=O)cc2C1=O	-1.2
COc1ccc(CN(C)C[C@H]2Oc3ccc(NS(=O)(=O)c4ccc(OC)cc4)cc3C(=O)N([C@H](C)CO)C[C@H]2C)cc1	-0.9
C[C@@H]1CN([C@H](C)CO)C(=O)c2cccc(NC(=O)NC3CCCCC3)c2O[C@H]1CN(C)S(=O)(=O)c1ccc(Cl)cc1	-1.6
C[C@H](CO)N1C[C@H](C)[C@H](CN(C)C(=O)Nc2ccc(C(F)(F)F)cc2)OCCCC[C@H](C)Oc2ccc(NC(=O)Nc3ccc(F)cc3)cc2C1=O	0.9
Cc1cc(C(=O)Nc2cccc3c2O[C@H](CN(C)Cc2ccc(C(=O)O)cc2)[C@@H](C)CN([C@@H](C)CO)C3=O)n(C)n1	-0.3
COc1ccc(CN(C)C[C@H]2OCCCC[C@H](C)Oc3ccc(NC(=O)Cc4ccccc4)cc3C(=O)N([C@H](C)CO)C[C@H]2C)cc1	-0.4
COc1ccc(NC(=O)Nc2ccc3c(c2)C(=O)N([C@H](C)CO)C[C@H](C)[C@@H](CN(C)C(=O)CCC(F)(F)F)OCCCC[C@H](C)O3)cc1	1.6
C[C@@H]1CCCCO[C@@H](CN(C)C(=O)C2CCCCC2)[C@@H](C)CN([C@H](C)CO)C(=O)c2cc(NC(=O)Nc3ccccc3)ccc2O1	2.1
COc1ccc(NC(=O)Nc2ccc3c(c2)CC(=O)N([C@@H](C)CO)C[C@@H](C)[C@H](CN(C)S(=O)(=O)c2ccc(F)cc2)O3)cc1	-0.3
C[C@H](CO)N1C[C@H](C)[C@@H](CN(C)C(=O)Nc2cccc3ccccc23)Oc2ccc(NC(=O)Cc3cn(C)c4ccccc34)cc2CC1=O	0.1
CNC[C@H]1Oc2c(NS(=O)(=O)c3ccc(OC)cc3)cccc2C(=O)N([C@@H](C)CO)C[C@H]1C	0.9
COCCOC(=O)N1C(=O)[C@@]2(c3cc(C#Cc4ccc(OC)cc4)ccc31)[C@H](c1ccccc1OCCO)N1[C@H](c3ccccc3)[C@H](c3ccccc3)OC(=O)[C@H]1[C@@H]2C(=O)N1CCN(c2ncccn2)CC1	1.3
C[C@@H]1CCCCO[C@@H](CN(C)C(=O)CCCN(C)C)[C@H](C)CN([C@H](C)CO)C(=O)c2cc(NC(=O)Nc3ccc(C(F)(F)F)cc3)ccc2O1	0.9
C[C@H](CO)N1C[C@H](C)[C@@H](CN(C)C(=O)Nc2ccc(C(F)(F)F)cc2)Oc2c(NC(=O)C3CC3)cccc2C1=O	-0.5

Continued.
SMILES	A1 apoptosis 2
C[C@@H]1CN([C@@H](C)CO)C(=O)c2cc(NC(=O)c3ccncc3)ccc2O[C@@H](C)CCCCO[C@H]1CN(C)CC1CCCCC1	-0.4
C[C@H](CO)N1C[C@H](C)[C@H](CN(C)Cc2ccccc2)Oc2c(NC(=O)C3CC3)cccc2C1=O	-0.8
COc1ccc(CN(C)C[C@@H]2Oc3ccc(NS(C)(=O)=O)cc3C(=O)N([C@H](C)CO)C[C@@H]2C)cc1	-0.2
C[C@@H]1CN([C@@H](C)CO)C(=O)Cc2cc(NC(=O)CCN3CCOCC3)ccc2O[C@H]1CN(C)Cc1ccncc1	-0.9
C[C@@H]1CCCCO[C@H](CN(C)C)[C@@H](C)CN([C@H](C)CO)C(=O)c2cc(NC(=O)Nc3ccc4c(c3)OCO4)ccc2O1	-0.1
COc1ccc(S(=O)(=O)Nc2cccc3c2O[C@@H](CN(C)Cc2ccc(C(F)(F)F)cc2)[C@H](C)CN([C@H](C)CO)C3=O)cc1	-0.2
C[C@@H]1CCCCO[C@H](CN(C)Cc2ccncc2)[C@H](C)CN([C@H](C)CO)C(=O)c2cc(NC(=O)CCC(F)(F)F)ccc2O1	0.6
Cc1noc(C)c1S(=O)(=O)Nc1ccc2c(c1)C(=O)N([C@@H](C)CO)C[C@@H](C)[C@@H](CN(C)S(C)(=O)=O)OCCCC[C@@H](C)O2	0.8
Cc1noc(C)c1NC(=O)Nc1cccc2c1O[C@@H](CN(C)S(=O)(=O)c1ccc(Cl)cc1)[C@H](C)CN([C@H](C)CO)C2=O	1.8
C[C@H](CO)N1C[C@H](C)[C@H](CN(C)Cc2ccc(Oc3ccccc3)cc2)Oc2c(NC(=O)C3CC3)cccc2C1=O	1.5
C[C@@H]1CCCCO[C@@H](CN(C)C(=O)c2ccccc2)[C@@H](C)CN([C@H](C)CO)C(=O)c2cc(NC(=O)Nc3ccc(C(F)(F)F)cc3)ccc2O1	0.6
C[C@H]1CN([C@@H](C)CO)C(=O)Cc2cc(NC(=O)Cc3ccccc3)ccc2O[C@H]1CN(C)Cc1ccc(C(F)(F)F)cc1	-1.1
Cc1noc(C)c1NC(=O)N(C)C[C@H]1OCCCC[C@@H](C)Oc2ccc(NC(=O)c3ccccc3)cc2C(=O)N([C@H](C)CO)C[C@H]1C	0.7
COc1ccc(CN(C)C[C@@H]2Oc3ccc(NC(=O)Nc4ccc(OC)cc4)cc3C(=O)N([C@@H](C)CO)C[C@@H]2C)cc1	0.5
C[C@@H]1CCCCO[C@@H](CN(C)C(=O)Nc2cccc3ccccc23)[C@@H](C)CN([C@@H](C)CO)C(=O)c2cc(NC(=O)Nc3ccc(C(F)(F)F)cc3)ccc2O1	0.4

Next compounds.
SMILES	A1 apoptosis 2
COc1ccc(NC(=O)N(C)C[C@@H]2Oc3ccc(NC(=O)Cc4cn(C)c5ccccc45)cc3CC(=O)N([C@@H](C)CO)C[C@@H]2C)cc1	-0.3
Cc1ccc(S(=O)(=O)N(C)C[C@@H]2Oc3ccc(NC(=O)Cc4cn(C)c5ccccc45)cc3CC(=O)N([C@H](C)CO)C[C@H]2C)cc1	1.0
C[C@H](CO)N1C[C@H](C)[C@H](CN(C)Cc2ccc(C(F)(F)F)cc2)OCCCC[C@H](C)Oc2ccc(NC(=O)Nc3ccccc3)cc2C1=O	-0.6
O=C(NCc1ccccc1)C1=C[C@@H](c2cccs2)C[C@@H](OCc2ccc(CO)cc2)O1	0.7
C[C@H]1CCCCO[C@@H](CN(C)C(=O)c2ccccc2)[C@@H](C)CN([C@@H](C)CO)C(=O)c2cc(NC(=O)Nc3ccc(C(F)(F)F)cc3)ccc2O1	1.1
Cc1noc(C)c1NC(=O)Nc1ccc2c(c1)C(=O)N([C@H](C)CO)C[C@@H](C)[C@H](CN(C)C(=O)Nc1c(C)noc1C)O2	-0.4
Cc1ncc(CO)c(/C=N/NC(=O)c2ccccn2)c1O	-1.7
C[C@@H]1CN([C@H](C)CO)C(=O)c2cccc(NC(=O)Nc3ccc(F)cc3)c2O[C@H]1CN(C)C(=O)Nc1ccc2c(c1)OCO2	0.4
C[C@H](CO)N1C[C@H](C)[C@@H](CN(C)C(=O)Nc2ccc(F)cc2)Oc2c(NC(=O)NC3CCCCC3)cccc2C1=O	-0.5
C[C@@H]1CN([C@@H](C)CO)C(=O)CCCn2nncc2CO[C@H]1CN(C)Cc1ccc(Cl)c(Cl)c1	-0.3
C[C@@H]1CCCCO[C@@H](CN(C)Cc2ccc(C(=O)O)cc2)[C@@H](C)CN([C@@H](C)CO)C(=O)c2cc(NC(=O)Nc3ccc(C(F)(F)F)cc3)ccc2O1	0.3
C[C@@H]1CN([C@@H](C)CO)C(=O)c2cc(NS(=O)(=O)c3ccc(F)cc3)ccc2O[C@@H](C)CCCCO[C@@H]1CN(C)Cc1ccc(C(F)(F)F)cc1	-0.3
C[C@@H]1CCCCO[C@@H](CN(C)S(=O)(=O)c2cccs2)[C@H](C)CN([C@H](C)CO)C(=O)c2cc(NC(=O)CCCN(C)C)ccc2O1	0.6
Cc1noc(C)c1S(=O)(=O)N(C)C[C@@H]1OCCCC[C@@H](C)Oc2ccc(NC(=O)c3ccccc3)cc2C(=O)N([C@@H](C)CO)C[C@H]1C	-0.8
CC(C)NC(=O)Nc1ccc2c(c1)C(=O)N([C@@H](C)CO)C[C@@H](C)[C@H](CN(C)Cc1ccc(C(F)(F)F)cc1)OCCCC[C@@H](C)O2	-0.4

(next part)
SMILES	A1 apoptosis 2
CC(C)NC(=O)N(C)C[C@H]1Oc2ccc(NC(=O)NC3CCCCC3)cc2CC(=O)N([C@H](C)CO)C[C@H]1C	0.9
Cc1noc(C)c1NC(=O)Nc1ccc2c(c1)C(=O)N([C@H](C)CO)C[C@H](C)[C@@H](CN(C)Cc1ccc(C(=O)O)cc1)O2	0.4
C[C@@H]1CCCCO[C@@H](CN(C)C)[C@@H](C)CN([C@H](C)CO)C(=O)c2cc(NC(=O)CCC(F)(F)F)ccc2O1	-0.1
C[C@H]1CN([C@@H](C)CO)C(=O)CCCn2cc(nn2)CO[C@H]1CN(C)C(=O)CCC(F)(F)F	-0.4
C[C@H](CO)N1C[C@H](C)[C@H](CN(C)CC2CC2)OCCCC[C@H](C)Oc2ccc(NS(=O)(=O)c3ccc(F)cc3)cc2C1=O	1.1
C[C@@H]1CCCCO[C@H](CN(C)S(=O)(=O)c2ccccc2)[C@@H](C)CN([C@H](C)CO)C(=O)c2cc(N(C)C)ccc2O1	0.1
C[C@H]1CN([C@@H](C)CO)C(=O)c2cc(NC(=O)Cc3ccccc3)ccc2O[C@@H]1CN(C)Cc1ccc2c(c1)OCO2	-0.1
COc1ccc(S(=O)(=O)N(C)C[C@@H]2Oc3c(NC(=O)Nc4cccc5ccccc45)cccc3C(=O)N([C@@H](C)CO)C[C@H]2C)cc1	0.5

An excerpt from above in order of length of the SMILES, largest number first:
SMILES	A1 apoptosis 2
C[C@@H]1CN([C@@H](C)CO)C(=O)c2cc(NC(=O)Nc3ccc(C(F)(F)F)cc3)ccc2O[C@@H](C)CCCCO[C@H]1CN(C)C(=O)c1ccccc1	0.2
C[C@H](CO)N1C[C@H](C)[C@H](CN(C)CC2CC2)OCCCC[C@H](C)Oc2ccc(NS(=O)(=O)c3ccc(F)cc3)cc2C1=O	1.1
C[C@H](CO)N1C[C@H](C)[C@H](CN(C)Cc2ccc(Oc3ccccc3)cc2)Oc2c(NC(=O)C3CC3)cccc2C1=O	1.5
